B2AR ag: activates human beta-2 adrenergic receptor causing internalization; P07550; response, % (test concentration not listed); Am2.2-beta2AR cells, FAP receptor internalization, flow cytometry; reference of the scale not given here; 340,000 tested, 0.43% active;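 active = response above a set limit, near 3 SD of response in nonfluorescent compounds, cut at about 42% in these data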;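 also: stock transfer was 100 nL into about 11 µL; a reference agonist was the positive control; negative values mostly stem from fluorescent compounds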
Target sequence (P07550 whole entry, looked up): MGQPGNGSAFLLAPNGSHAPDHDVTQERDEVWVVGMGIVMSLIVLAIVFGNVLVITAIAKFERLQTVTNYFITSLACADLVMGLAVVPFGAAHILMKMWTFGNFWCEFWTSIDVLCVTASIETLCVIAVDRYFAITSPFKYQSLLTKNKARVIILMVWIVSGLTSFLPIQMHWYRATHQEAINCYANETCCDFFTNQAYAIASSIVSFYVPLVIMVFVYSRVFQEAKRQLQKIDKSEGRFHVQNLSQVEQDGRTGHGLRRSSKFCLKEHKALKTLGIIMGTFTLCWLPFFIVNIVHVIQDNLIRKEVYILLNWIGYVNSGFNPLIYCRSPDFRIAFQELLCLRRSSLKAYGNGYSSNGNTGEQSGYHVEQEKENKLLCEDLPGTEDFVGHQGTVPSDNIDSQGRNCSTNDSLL
Vif TR-FRET: inhibitors of Vif binding to APOBEC3G peptide, primary screen, biochemical, TR-FRET, GST-Vif 1-94, biotin-A3G peptide, dose response retest (AID 1117319) | TR-FRET GST-Vif / biotin-A3G peptide binding; higher % means a stronger effect; test concentration not given here; strong numbers were not always called active | inhibition, %; hits with a dose series show IC50 in µM | 260,000 tested, 0.57% active;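 active = above the screen mean plus three standard deviations and confirmed in dose response; inconclusive = results disagree or hit not tested in dose response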;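 also: Vif residues 1-94 fused to GST binding biotinylated APOBEC3G peptide 110-148; 0% = full assay without inhibitor and 100% = GST in place of GST-Vif; retest series ran down from 100 µM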
HNF4A DNA FP: change in binding of human HNF4 alpha to DNA; activity change, % at 10 µM; AID 1224865; HNF4a-FITC DNA binding, fluorescence polarization, 1 h; P41235; 360,000 tested, 0.3% active; in the data active = activity change above about 30%, passing the limit was not always enough;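 also: controls were the assay level and a saturating level of protein; the project sought stronger binding though the title names inhibitors; some compounds called inactive have numbers as strong as hits; positive values seem to mean higher polarization but the record does not say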
Target sequence (P41235 whole entry, looked up): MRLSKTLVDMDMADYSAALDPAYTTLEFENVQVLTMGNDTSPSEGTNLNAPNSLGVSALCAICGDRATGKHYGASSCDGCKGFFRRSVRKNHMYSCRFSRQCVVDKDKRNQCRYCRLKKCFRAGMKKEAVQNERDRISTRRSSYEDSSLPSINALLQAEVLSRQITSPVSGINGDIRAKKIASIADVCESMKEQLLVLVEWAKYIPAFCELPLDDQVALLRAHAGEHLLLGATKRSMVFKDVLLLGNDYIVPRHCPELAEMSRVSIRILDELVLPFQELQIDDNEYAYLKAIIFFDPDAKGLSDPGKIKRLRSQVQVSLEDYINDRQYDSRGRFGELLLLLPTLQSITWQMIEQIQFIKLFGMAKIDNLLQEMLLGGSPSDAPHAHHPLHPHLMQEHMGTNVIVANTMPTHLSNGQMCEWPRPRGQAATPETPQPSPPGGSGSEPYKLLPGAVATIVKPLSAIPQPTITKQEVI
LANA-H2B inh: blocks KSHV LANA binding to histone H2A/H2B. Q9QR71. cell-free LANA-H2A/H2B peptide, fluorescence polarization. inhibition, % (concentration not given with the values). 320,000 tested, 0.6% active. AID 2629; in the data active = inhibition mostly above about 10%, no sharp cut-off; inactive = mostly below about 6.7%;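 also: stock transfer was 7.5 nL into about 10 µL; 0% = median of vehicle wells and 100% = median of positive control wells; one replicate is shown; the record names a cut of 25% in any replicate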
RanGTP-Impb inh: disruptors of Ran-importin-beta complex formation – biochemical, FRET, CFP-Ran, YFP-importin-beta, homogeneous, primary screen; cell-free CFP-Ran/YFP-importin-beta FRET ratio; inhibition, % (test concentration not listed); 300,000 tested, 1.1% active;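 active = most replicates above 15%; inconclusive = exactly half above 15%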;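 also: 0% = DMSO wells and 100% = Ran loaded with GDP instead of GTP; wells of about 40 µL received 100 nL stock; the first replicate is given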
Calb FLC: C. albicans growth modulation with fluconazole; C. albicans CaCi-2 (fluconazole-resistant clinical isolate) + fluconazole, Alamar Blue growth, 48 h; growth inhibition, % (test concentration not listed); 300,000 tested, 0.57% active; AID 1979;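 active = most replicates above 75%; inconclusive = exactly half above 75%; inactive = most below 75%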;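 also: all wells also contain fluconazole at 8 µg/ml as a sub-toxic cotreatment; 0% = median of DMSO wells and 100% = median of geldanamycin control wells; wells of about 8 µL received 7.5 nL stock; the first replicate is given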
ALR H2O2 inh: blocks human ALR sulfhydryl oxidase activity | purified ALR, DTT oxidation, H2O2 HRP-luminol luminescence | 290,000 tested, 3.8% active | inhibition, % (no concentration beside the values) | P55789;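 active = mean and each replicate at 75% or more; inconclusive = only one of the two met; inactive = neither met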;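 also: stock transfer was 7.5 nL into about 7.5 µL; 0% = neutral wells and 100% = wells with inactivated enzyme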
Target sequence (P55789 whole entry, looked up): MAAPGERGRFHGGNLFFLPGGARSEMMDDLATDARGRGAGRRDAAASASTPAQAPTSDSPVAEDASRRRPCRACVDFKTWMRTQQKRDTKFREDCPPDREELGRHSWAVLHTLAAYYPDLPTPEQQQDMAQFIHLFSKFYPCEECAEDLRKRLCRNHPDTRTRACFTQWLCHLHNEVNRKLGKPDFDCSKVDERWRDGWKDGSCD
Numbers without * were called inactive; ? = inconclusive; nt = no result given. Outcome played no part in choosing rows; 6.3% or so of the library scored in one or more.

SMILES	B2AR ag	Vif TR-FRET	HNF4A DNA FP	LANA-H2B inh	RanGTP-Impb inh	Calb FLC	ALR H2O2 inh
C/C(=N/Nc1ccccc1C(=O)O)c1cccs1	-2	nt	1.8	4.2	-1.1	2	95*
O=C(CNC(=O)c1ccc(Br)o1)NCc1ccc(Cl)cc1	13	nt	0.8	0.1	0.9	1	-4
COc1ccc(NC(=O)[C@@H]2CCCN2C(=O)[C@@H]2Cc3ccccc3CN2C(=O)OC(C)(C)C)cc1	-7	1%	1.7	-2.6	-1.0	-44	-1
CCCCCNC(=O)c1ccc(NS(=O)(=O)c2ccc3[nH]c(=O)[nH]c3c2)cc1	-13	3%	0.8	3.2	-1.9	-15	-1
O=C(C[n+]1ccccc1)Nc1ccccc1C(=O)O	11	8%	0.3	-1.8	?	-6	-5
CCn1cc(C(=O)N[C@@H](CCSC)C(=O)NCCCOC)c(=O)c2cc3c(cc21)OCO3	-3	-2%	1.4	-0.7	1.5	-3	nt
COc1ccccc1N1CCN(C(=O)c2cc(C)oc2C)CC1	7	-8%	-1.3	nt	-2.0	3	nt
CC(C)c1ccccc1NC(=O)CN1C(=O)c2ccccc2C1=O	-1	13%	-1.0	0.0	-3.9	-2	-6
O=C(Cc1ccc(F)cc1)Nc1nnc(-c2ccc(F)cc2)o1	-7	nt	-1.2	0.5	5.9	46	nt
Cc1cc(-c2ccc(C(C)C)c(S(=O)(=O)N3CC(=O)Nc4ccccc43)c2)on1	-7	nt	-0.5	6.6	2.7	5	-6
CCCCC1=CC2=C(c3ccco3)C(=O)C(C)(OC(=O)c3ccc(OC)cc3)C(=O)C2=CN1CCN1CCOCC1 (configuration not stated)	10	nt	5.7	5.8	-16	3	-17
O=C(Cn1cnc2ccccc2c1=O)c1ccc2ccccc2c1	-7	19%	2.9	4.6	0.7	-1	-12
COc1ccc(NC(=O)c2nc(C)c(C3(C)CC(c4cccnc4)=NO3)s2)cc1 (configuration not stated)	2	3%	7.7	-3.9	-2.5	-17	-4
Cc1ccc(C)c(OCC(=O)N(Cc2nnc(-c3ccccc3Cl)o2)C2CC2)c1	-3	-3%	0.7	nt	0.9	9	nt
CN(C1CCCCC1)S(=O)(=O)c1cccc2nsnc12	-1	nt	-3.1	-4.5	-5.0	-5	3

Taken from the listing for reference:
SMILES	B2AR ag	Vif TR-FRET	HNF4A DNA FP	LANA-H2B inh	RanGTP-Impb inh	Calb FLC	ALR H2O2 inh
O=C(Cc1ccc(F)cc1)Nc1nnc(-c2ccc(F)cc2)o1	-7	nt	-1.2	0.5	5.9	46	nt
Cc1cc(-c2ccc(C(C)C)c(S(=O)(=O)N3CC(=O)Nc4ccccc43)c2)on1	-7	nt	-0.5	6.6	2.7	5	-6

The list continues.
SMILES	B2AR ag	Vif TR-FRET	HNF4A DNA FP	LANA-H2B inh	RanGTP-Impb inh	Calb FLC	ALR H2O2 inh
C#CCOCCOCCOCCNc1nc(N2CCN(C(=O)CCCCCCCCCCNC(=O)Cn3cc(CCCCCN)nn3)CC2)nc(N2CCN(C(=O)CCCCCCCCCCNC(=O)[C@H]([C@@H](C)CC)n3cc(CCCCCN)nn3)CC2)n1	30	nt	52*	-31	nt	nt	-2
CCOc1ccccc1-c1cc(-c2ccccc2)nc2c1c(=O)n(C)c(=O)n2C	0	-8%	3.7	-6.9	1.4	0	5
Cc1cc(C(=O)COC(=O)/C=C/c2ccc(F)cc2)c(C)n1C	-1	-3%	-3.0	0.6	nt	nt	2
OC(CCN1CCCCC1)c1ccc(-c2ccccc2)cc1 (configuration not stated)	4	-1%	-3.3	-3.7	2.3	-4	4
O/N=C(/Cc1ccccn1)c1ccccc1	0	1%	-0.6	-0.1	4.6	-13	0
O=C(O)CC/C(=C\c1ccccc1[N+](=O)[O-])c1nc2ccccc2s1	7	2%	1.5	-0.9	-1.2	56	97*
O=C1N(Cc2ccccc2)c2ccccc2C12OCCO2	2	-2%	-0.6	-3.9	0.4	0	0
CCOC(=O)C1(Cc2cccc(F)c2)CCN(C(=O)C2CCC2)CC1	8	19%	-0.8	-2.6	-0.5	?	-3
CCCOc1ccc(NCC(=O)Nc2ccc(C)cc2C)cc1	1	1%	3.0	-6.1	6.8	1	12
Cc1cc(-c2[nH]nc3c2C(c2ccsc2)C(C#N)=C(N)O3)c(C)s1 (configuration not stated)	12	13%	0.1	3.2	2.2	18	8
CCCC[n+]1c(C)sc2cc(OC)ccc21	2	7%	5.7	5.7	?	7	nt
NC(=O)CC(NC(=O)c1ccccc1)c1ccc(N2CCc3ccccc3C2)c([N+](=O)[O-])c1 (configuration not stated)	-6	nt	-3.8	-2.9	-1.3	-5	-20
C[C@]1(C(=O)NCc2cc(F)cc(C(F)(F)F)c2)C=C[C@@H](Cc2ccccc2)N1C(=O)c1ccccc1	-2	4%	0.8	2.6	4.4	-2	-1
Cc1ccccc1OCC(=O)N/N=C/c1ccco1	9	6%	-3.6	-1.0	-2.5	10	33
O=C(Nc1ccccc1O)c1ccc2c(c1)C(=O)N(N1C(=O)c3ccccc3C1=O)C2=O	3	nt	1.3	4.0	2.9	0	6
O=C(NCc1ccccc1C(F)(F)F)C1CC(c2cc(C(F)(F)F)cc(C(F)(F)F)c2)=NO1 (configuration not stated)	6	0%	1.1	1.4	11	2	-23
Cc1nnc(SC(C)C(=O)Nc2ccc3c(c2)OCCO3)s1 (configuration not stated)	-7	2%	-7.0	-2.5	-5.3	-12	-6
Cc1ccc(S(=O)(=O)n2cnc3cc([N+](=O)[O-])ccc32)c(C)c1	2	?	0.9	-2.8	-0.2	-1	-10
CCOC(=O)CNS(=O)(=O)c1cc(-c2n[nH]c(=O)c3ccccc23)ccc1C	9	0%	1.0	nt	1.8	7	nt
COc1ccccc1-n1c(=S)[nH]c2c(sc(=S)n2-c2ccccc2C)c1=O	-3	22%	-0.3	nt	3.6	38	-2
Cc1nc2sc3c(c2c(=N)n1N)CC(C)(C)OC3	-2	-1%	0.7	2.8	4.8	4	-9
O=C1COc2ccc(C(=O)c3ccccc3C(=O)NCc3ccco3)cc2N1	0	6%	3.1	4.0	-1.5	12	3
COC(=O)CCSc1cc([N+](=O)[O-])cc2c1c(C1OCCS1)nn2-c1ccccc1 (configuration not stated)	-16	-2%	2.9	0.4	-46	23	1
COCCNC(=S)N1CCN(S(C)(=O)=O)CC1	2	nt	-1.0	-6.4	-1.4	-2	-1
O=C(c1ccc(F)cc1)N1CCCC(C(=O)N2CCN(c3ccccc3)CC2)C1 (configuration not stated)	-5	2%	2.8	8.6	1.5	7	36
Cc1cc(SCC(=O)N/N=C/c2ccc(O)c(O)c2)nc2ccccc12	9	nt	-0.8	2.0	?	-12	nt
Cc1ccc(-c2cc(C(=O)N/N=C/C=C/c3ccccc3)n[nH]2)s1	0	2%	3.1	1.8	-0.5	6	-3
O=C(c1ccc(Cl)cc1)N1CCCOC1	-3	-1%	1.6	-0.3	2.1	-2	-5
CCOC(=O)N1CCN(CCC(=O)Nc2ccc(C)cc2)CC1	6	1%	0.8	3.3	?	-8	-4
COc1cc(C(=O)O)cc(NC(=O)c2ccco2)c1OC	-1	-6%	-0.7	0.0	-1.4	-6	-2
CC(C)N(CCNC(=O)COc1ccc2oc3c(c2c1)CCCC3)C(C)C	-7	nt	0.5	0.9	-0.8	-20	-5
O=C(COC(=O)CNC(=O)c1ccc(Cl)cc1)Nc1ccc(Cl)cc1C(F)(F)F	-6	nt	-0.4	-9.4	-1.1	9	1
C#CCNC(=O)C1=C[C@@H](c2coc3ccccc3c2=O)C[C@@H](OCCCCO)O1	-1	nt	-0.2	-6.1	0.6	-2	4
CCSc1nnc(Nc2ccc(C)cc2)s1	0	1%	-1.3	0.9	-0.7	-22	6
O=C(COc1ccccc1)Nc1ccncc1	5	nt	0.5	-0.4	3.4	4	nt
CC(C)N1C(=O)CN(C2CCCCCC2)C(=O)C1c1ccccc1F (configuration not stated)	-2	7%	4.9	4.7	5.3	-21	-7
COc1ccc(CCC(=O)NCCS(=O)(=O)N2CCN(c3ccccc3F)CC2)cc1	-1	-4%	1.7	4.0	5.0	3	-1
N#Cc1c(N)n(CCCN2CCOCC2)c2nc3ccccc3nc12	-14	5%	0.6	4.0	nt	nt	-10
CNCc1ccc(OCc2ccccc2)c(OC)c1	6	-6%	-0.1	-3.4	-5.2	-9	-4
O=C(CCN1C(=O)/C(=C/c2ccccc2F)SC1=S)N[C@@H](CO)Cc1ccccc1	0	nt	0.2	2.7	4.4	-7	-2
O=C(O)c1cc(-c2cccs2)nc2ccc(Br)cc12	6	nt	3.9	1.9	-0.5	-1	1
COc1ccccc1OCC#CCn1ccnc1	-3	nt	4.3	1.2	-0.1	2	-2
O=C(CN1CCN(S(=O)(=O)c2ccc(Cl)s2)CC1)NCc1ccc(Cl)cc1	-5	7.7µM*	1.1	-5.9	5.1	14	0
COc1ccccc1CNC(=O)CS(=O)(=O)c1ccccc1	0	-3%	-4.1	4.8	-4.2	-3	-1
CCn1cc(C(=O)NCCc2ccc(C)cc2)c(=O)c2cc(S(=O)(=O)N(C)C)ccc21	nt	nt	nt	-2.8	2.4	1	3
COc1ccc(N2CCN(C(=O)c3csc4ccccc34)CC2)cc1	2	-2%	1.1	0.0	4.4	-13	49
O=C1CCCC/C=C\C[C@H](CC(=O)N(CCO)Cc2ccccc2)C(=O)N2CCC[C@@H]2CO1	3	nt	2.1	5.1	nt	nt	1
COc1ccc2[nH]c3c(c2c1)CCN1C(=O)N([C@@H](C)C(=O)NCc2ccco2)C(=O)[C@]31C	-1	nt	4.9	4.1	-0.3	-5	8
CCN(CC(=O)Nc1c(F)cccc1F)C(=O)CN1C(=O)C2CCCCC2C1=O (configuration not stated)	-6	-4%	7.4	1.2	nt	nt	1
O=C(NCc1ccco1)C(c1ccncc1)N(C(=O)Cc1cccs1)c1ccccc1 (configuration not stated)	1	nt	-5.2	-1.1	-4.5	1	-10
O=C(CCc1ccccc1)N1CCN(c2ccccn2)CC1	-6	-4%	2.9	0.4	1.2	-4	2
CCOC(=O)C(NC(=O)C1C(C)N1S(=O)(=O)c1ccc(C)cc1)C(=O)OCC (configuration not stated)	4	-6%	3.5	2.5	2.3	1	-1
Cc1cc(C)nc(Sc2ncnc(N)c2[N+](=O)[O-])n1	6	-17%	0.5	7.4	-0.8	19	49
Cc1sc2ncnc(N[C@@H](CCC(=O)O)C(=O)O)c2c1C	5	-3%	-1.6	1.7	1.0	-4	-3
COc1ccc(Cl)cc1NC(=O)CCNS(=O)(=O)c1cccc2nonc12	-1	10%	2.8	-1.1	-1.9	0	nt
CC(=O)Nc1ccc(S(=O)(=O)N[C@@H](C)C(=O)OCC(=O)c2ccc(C)cc2)cc1	0	nt	1.4	-1.8	nt	nt	1
Cn1c(SCC(=O)N2CCCc3ccccc32)nnc1-c1cccs1	-15	2%	-2.0	0.7	-0.9	9	-1
CCCC1(c2ccccc2)NC(=O)N(CCN2C(=O)c3ccccc3C2=O)C1=O (configuration not stated)	-5	4%	-1.3	-2.7	3.9	-7	-3
COc1ccc(C(=O)N2CCN(C(=O)c3ccc(-c4ccccc4)cc3)CC2)cc1OC	2	-6%	6.8	1.2	6.6	-27	-3
CC(=O)NS(=O)(=O)c1ccccc1	13	1%	-0.2	1.8	-3.9	-6	-6
Following part.
SMILES	B2AR ag	Vif TR-FRET	HNF4A DNA FP	LANA-H2B inh	RanGTP-Impb inh	Calb FLC	ALR H2O2 inh
Cn1nc(C(=O)O)c(=O)n(C)c1=O	6	0%	-3.8	nt	nt	nt	nt
COc1cc(NC(=O)Cn2cnc(S(=O)(=O)N3CCC(C)CC3)c2)cc(OC)c1OC	5	nt	1.2	nt	-0.1	4	2
O=C(CC(c1ccccc1)c1cc(Cl)ccc1O)N1CCOCC1 (configuration not stated)	3	-1%	-2.0	-5.2	-1.1	24	nt
CCOC(=O)N1CCN(CC(=O)Nc2cc(C)nn2-c2nc3ccccc3s2)CC1	-4	-5%	-3.1	16*	-2.1	6	7

Source: PubChem BioAssay (several laboratories)
